Screening data from PubChem BioAssay.
VACV Venus inh – qHTS for Stage-Specific Inhibitors of Vaccinia Orthopoxvirus: Venus Reporter Primary qHTS; Vaccinia virus Venus reporter expression, fluorescence; AID 720580, 2013; Potency, µM (titrated, usually from 36.5 µM), for inactives: at the highest dose activity change, negative = inhibition, most hits filed as inhibitors; 330,000 compounds, 0.46% hits; active means well fitted inhibition curve with a large enough effect; inconclusive means small, poorly fitted or top-dose-only effect; inactive means no such curve, though single readings can be large or run the other way; tested in A549 cells; note: nearly all actives have a fitted effect of over 30% in size; inactives centre near -10
VACV mCherry inh – qHTS for Stage-Specific Inhibitors of Vaccinia Orthopoxvirus: mCherry Reporter Primary qHTS. Potency, µM (titrated, usually from 36.5 µM), for inactives: at the top dose activity change, negative = inhibition, most hits filed as inhibitors. Vaccinia virus mCherry reporter infection, fluorescence; about a quarter of the inactives have no number. 310,000 compounds, 0.63% hits. AID 720579, 2013; active = well fitted inhibition curve with a large enough effect; inconclusive = small, poorly fitted or top-dose-only effect; inactive = no such curve, though single readings can be large or run the other way; tested in A549 cells; note: nearly all actives have a fitted effect of over 35% in size; inactives centre near -10
An asterisk follows results filed as active; i = inactive; u = inconclusive; x = not tested or not shown; & = joins results of further samples; [ ] = another dose, or the depositor's remark. % is set by controls: 0 for no effect and ±100 for the full control effect; potency is the fitted concentration of half-maximal effect. This is a random part of the collection; overall some 0.86% were active at least once.

| canonical_smiles | VACV Venus inh | VACV mCherry inh |
| --- | --- | --- |
| Cc1ccc(C(=O)Nc2cccnc2Oc2ccc(Cl)cc2)cc1 | 0% | i |
| CCCC(=NCC(=O)O)C1=C(O)C(C(=O)OC)C(C)(C)CC1=O (stereo not given) | -9% | -18%[1.46 µM] |
| O=C(CCNS(=O)(=O)c1ccc(Cl)cc1)NCCc1ccccc1 | -16% | u |
| COc1ccccc1CCNC1CCCCCC1 | -11% | -2% |
| CN=C(C)C1=C(O)C(C(=O)OC)C(C)(C)CC1=O (stereo not given) | -8% | x |
| CC(C)NC(C)Cc1ccc(I)cc1 (stereo not given) | -8% | i |
| O=C(NCc1cccs1)c1cc(S(=O)(=O)N2CCCCC2)ccc1Cl | 0% | -14% |
| Cc1cc(C)cc(OCC(=O)Nc2nc(-c3ccc(F)cc3)ns2)c1 | -15% | -3% |
| COc1ccc(C(=O)OCC(=O)NC2CCCC2)c(OC)c1OC | -5% | i |
| O=C(NCc1ccccc1)C1CCN(S(=O)(=O)c2ccc(N3CCCC3=O)cc2)CC1 | -16% | i |
| Cc1ccc(/C=N/NC(=O)c2cc(-c3ccncc3)nc3ccccc23)o1 | -22% | u |
| COc1ccc(NC(=O)c2cc3c(=O)n(C)c4cc(Cl)ccc4c3s2)cc1Cl | -3% | -12% |
| O=C(CSc1nc(-c2cccc(F)c2)[nH]c1-c1ccccc1)Nc1ccc2c(c1)OCO2 | u | u |
| CC1Oc2ccccc2N(CC(=O)N2CCCCCC2)C1=O (stereo not given) | 19% | -6% |
| CCc1n[nH]c(CCN)n1 | -2% | i |
| O=P(O)(Oc1ccccc1)OC(c1ccccc1)C(F)(F)F (stereo not given) | 1% | -1% |
| COC(CN(C)S(=O)(=O)c1cc2c3c(c1)CCC(=O)N3CCC2)OC | 0%[7.34 µM] | i[7.34 µM] |
| c1ccc(Oc2ccccn2)cc1 | -8% | -1% |
| COc1ccccc1/C=C/C(=O)OCC(=O)NCc1ccco1 | 0% | -15% |
| Cc1ccccc1-c1cc2nc(NCCc3ccncc3)n(C)c(=O)c2s1 | -14% | 10% |
| O=C(CN1CCN(c2ccccc2)CC1)c1c[nH]c2ccccc12 | 0% | -14% |
| CCn1nnnc1SCC(=O)Nc1nc(-c2cccs2)cs1 | -10% | -13% |
| CCC(C)(C)NC(=O)c1cccc(NC(=O)C(C)C)c1 | 10% | -14% |
| CCOc1ccc2nc(S(=O)(=O)NC(=O)C3(C)CCN3C(=O)CCc3cccs3)sc2c1 (stereo not given) | 2% | i |
| CCOc1ccc(NC(=O)CSc2nnc(Cn3cnc([N+](=O)[O-])n3)n2C)cc1 | 8% | -13% |
| COc1ccccc1/C=N/OC(=O)c1ccc(C)cc1 | 2% | i |
| COc1ccccc1C(=O)NNC(=S)Nc1ccccc1 | -22% | -23% |
| COc1ccc(-c2nc3ccccc3n2Cc2ccc(Cl)cc2)cc1 | -4% | -15% |
| Cc1ccc(SCC(=O)c2c(C)nc3ccccn23)cc1 | -21% | -1% |
| Cc1ccc(N2CCn3c2nc2c3c(=O)n(CCc3ccccc3)c(=O)n2C)cc1C | -2% | -6% |
| COc1cccc(-c2cccc(NC(=O)C3CCN(CC4CCOC4)CC3)c2)c1 (stereo not given) | -4% | -13% |
| CCOC(=O)N1CCN(C(=O)c2ccc([N+](=O)[O-])cc2Cl)CC1 | -15% | i |
| Cc1ccc(C(=O)CSc2nc(-c3ccccc3)nc3c2CCCC3)cc1C | -1% | 6% |
| O=C(Cc1c(F)cccc1Cl)Nc1ccc(S(=O)(=O)N2CCOCC2)cc1 | -17% | -2% |
| CC(CCc1ccccc1)NC(=O)CN1CCN(c2ccc(O)cc2)CC1 (stereo not given) | -12% | -20% |
| C[C@H](Cc1ccccc1)Nc1ncnc2c1ncn2[C@@H]1O[C@H](CO)[C@@H](O)[C@H]1O | -13%&-11% | -8%&-12% |
| O=[N+]([O-])c1ccc(-c2csc(N3CCc4ccccc4C3)n2)cc1 | -15% | i |
| O=Cc1ccc(O)cc1 | 1% | -13% |
| C/C(=N\NC(=O)COc1ccccc1-c1ccccc1)c1cccnc1 | -7% | -1% |
| O=c1c2ccccc2nnn1CSc1nnc(-c2ccco2)o1 | -29% | u |
| Cc1oc(-c2ccccc2F)nc1CS(=O)(=O)CC(=O)N1CCN(c2ccc(Cl)cc2)CC1 | u | u |
| Cc1coc2c(C)c3oc(=O)c4c(c3cc12)CCCC4 | -4% | -7% |
| O=C(Cc1cc(=O)[nH][nH]1)N/N=C/C(Cl)=C/c1ccccc1 | -10% | x |
| Cc1cc(C)cc(N(CC(=O)NCCc2ccc(Cl)cc2)S(=O)(=O)c2c(C)noc2C)c1 | -3% | -14% |
| COc1ccc(C(=O)C=Cc2ccc3c(c2)OCO3)cc1OC | -18% | -3% |
| O=C(Cc1ccccc1)N/N=C/c1ccc([N+](=O)[O-])s1 | u | x |
| COc1ccc(C(=O)Nc2ccc(-c3cc4ccccc4oc3=O)c(C)c2)cc1OC | -25% | u |
| O=C1CN(S(=O)(=O)c2ccc(F)cc2)CCN1 | -6% | -14% |
| O=C(NCc1ccccc1Cl)c1cc2ccccc2oc1=O | -13% | -16% |
| COc1cc(SC)ccc1C(=O)Nc1ccc(S(=O)(=O)Nc2nccc(C)n2)cc1 | -1% | -2% |
| CCCCn1cnc2cc(NC(=O)c3cc(OC)c(OC)c(OC)c3)ccc21 | -11% | -10% |
| NC(=O)c1ccsc1NC(=O)COC(=O)c1ccc(Cl)c(N)c1 | -15% | -13% |
| CCc1nnc(SCc2ccc(OC)cc2)c2cc3sc(C)cc3n12 | -7% | -12% |
| COCCN(C(=O)COC(=O)C1CC1C)c1c(N)n(Cc2ccccc2)c(=O)[nH]c1=O (stereo not given) | -13% | -5% |
| CCN1CCN(c2nc(-c3ccc(F)cc3)cc(=O)[nH]2)CC1 | -15% | i |
| COc1ccc(-c2cc3ccc(OC)cc3cn2)cc1 | -8% | -19% |
| COc1ccc(C2=NN(C(=O)C(O)c3ccccc3)C(O)(C(F)(F)F)C2)cc1 (stereo not given) | -12% | -5% |
| COc1ccc(C(CNC(=O)CN(C)S(=O)(=O)c2ccc(C)cc2)N2CCCC2)cc1 (stereo not given) | -7% | -22% |
| Cc1cccc(N2CCN(C(=O)C3CCC(=O)N(Cc4ccccc4F)C3)CC2)c1C (stereo not given) | u | u |
| CC(C)(C)C(O)C(Oc1ccc(Cl)cc1)n1cncn1 (stereo not given) | -7% | -14% |

(listing goes on)
| canonical_smiles | VACV Venus inh | VACV mCherry inh |
| --- | --- | --- |
| CCCc1nc(SCC(=O)Nc2nccs2)c2ccccc2n1 | -10% | 30% |
| CC(C)(C)C1CCc2c(sc(NC(=O)c3cccc(Cl)c3)c2C(N)=O)C1 (stereo not given) | -10% | i |
| COC(=O)c1ccc(OC(=O)c2ccccn2)cc1 | -10% | -13% |
| Cc1ccn2c(C(=O)N/N=C\c3ccc4c(c3)OCO4)c(C)nc2c1 | -23% | -12% |
| COc1cc(S(=O)(=O)Nc2ccccc2C(=O)N2CCCC2)ccc1NC(C)=O | -1% | -12% |
| CCCCn1c(-c2ccc(OC(F)F)cc2)nc2c1c(=O)[nH]c(=O)n2CC(C)C | 7% | -3% |
| COCc1cc(C)nc2sc3c(c12)NC(c1ccccc1C(=O)O)N(c1cccc(C(F)(F)F)c1)C3=O (stereo not given) | -9% | -4% |
| COCc1ccc2oc(C(=O)O)cc2c1 | -5% | -16% |
| CCOc1ccc2nc(N3CCCC(C(=O)NCCc4ccc(C)cc4)C3)sc2c1 (stereo not given) | -13% | -8% |
| CCN1C[C@@H]2[C@@H]3C(=O)N(C)C(=O)[C@@H]3[C@](CC)(C1=O)N2C(=O)c1ccc(C)cc1 | 4% | -9% |
| Cc1nnsc1Sc1ccccc1C(=O)O | -4% | i |
| C/C=C/c1ccc2c(c1)O[C@H](CN(C)CC1CCOCC1)[C@@H](C)CN([C@H](C)CO)S2(=O)=O | -15% | -5% |
| CC(C)(C)c1ccc(OCCC(=O)Nc2cccc(S(=O)(=O)N3CCOCC3)c2)cc1 | -29% | -13% |
| COCCN(C(=O)Cc1cccs1)C(C(=O)NCc1ccc(OC)cc1)c1ccc(C)cc1 (stereo not given) | -14% | -14% |
| Cc1ccccc1OCCC(=O)Nc1ccc(S(=O)(=O)N(C)C2CCN(C)CC2)cc1 | u | u |
| COc1ccc(C(=O)c2c3ccccc3[n+]([O-])n2Cc2ccc(C(N)=O)cc2)cc1 | -17% | -19% |
| O=C(c1ccc(F)cc1)C1CCN(Cc2ccccc2F)CC1 | -7% | -15% |
| CCOC(=O)c1ccccc1NC(=O)N1CC(C)Oc2ccc(C)cc21 (stereo not given) | u | -27% |
| COCC(=O)NC1CCN(CC(=O)Nc2ccccc2[N+](=O)[O-])CC1 | -4% | i |
| O=C(NCCS(=O)(=O)N1CCN(c2ccccc2F)CC1)c1ccc(F)c(F)c1 | -9% | i |
| O=C(Nc1cccc2ccccc12)c1ccc([N+](=O)[O-])s1 | u | u |
| O=C(N/N=C/c1cnc2ccccc2n1)c1cccc(F)c1 | -22% | -19% |
| O=C(COc1ncnc2sccc12)N1CCN(S(=O)(=O)c2ccc(Cl)cc2)CC1 | -8% | i |
| Cc1ccc(S(=O)(=O)N2[C@@H](c3ccccc3F)C(C(=O)O)=CC[C@H]2c2cccc(Cl)c2)cc1 | -1% | i |
| COc1ccc(C(=O)C2CCCN(C(=O)c3ccc(CSC)o3)C2)cc1F (stereo not given) | -11% | -10% |
| COc1cccc(-c2nc(CS(=O)(=O)CC(=O)NCCCc3ccccc3)c(C)o2)c1 | -17%&-4% | -22% |
| C[C@H](CO)N1C[C@H](C)[C@@H](CN(C)C(=O)Nc2ccccc2F)Oc2cc(Br)ccc2S1(=O)=O | -18% | -10% |
| CCC(=O)N(Cc1cc2cc(OC)ccc2[nH]c1=O)c1ccc(C)cc1 | -28% | i |
| COCCN1C=C(C(=O)OC)C(c2ccc3c(c2)OCO3)C(C(=O)OC)=C1 | -14% | i |
| COC(=O)c1c(C)[nH]c(C(=O)NCCc2ccc(S(N)(=O)=O)cc2)c1C | -8% | 4% |
| O=C(C[C@@H]1CC[C@@H]2[C@H](COC[C@H](O)CN2CCC(F)(F)F)O1)NCc1ccc2c(c1)OCO2 | -14% | -17% |
| CC(=O)Nc1sc(C)c(C)c1C(=O)OC1CCOC1=O (stereo not given) | -13% | x |
| Cc1ccsc1/C=N/NC(=O)c1ccc2nc[nH]c2c1 | -6% | -3% |
| Cc1ccc(S(=O)(=O)c2nc(-c3ccccc3)oc2N2CCC(C(N)=O)CC2)cc1 | -11% | -17% |
| COc1cc(/C=N/n2cnnc2)ccc1OS(=O)(=O)c1ccccc1[N+](=O)[O-] | u | u |
| CCCC(=O)N(Cc1cc2cc(OC)ccc2[nH]c1=O)c1ccccc1OC | 2% | i |
| CC(C)CN(CCNC(=O)CN1C(=O)CSc2ccc(S(=O)(=O)N3CCOCC3)cc21)CC(C)C | -14% | -9% |
| CCn1c(C(=O)N2CCC(C(=O)NCc3ccc4c(c3)OCO4)CC2)cc2sccc21 | -12% | 11% |
| O=C(C=Cc1ccccc1O)c1ccccc1O | -10% | -23% |
| O=[N+]([O-])c1ccc(NCc2ccccc2)nc1 | -8% | -12% |
| Nn1cnc2sc3c(c2c1=O)CCC3 | -35% | x |
| CC1(C)N=C(SCc2ccccc2Cl)c2ccccc2N1 | -3% | -4% |
| Cc1ccc(C(=O)NC(=S)Nc2ccc3[nH]c(=O)[nH]c3c2)cc1 | -15% | -12% |
| COc1ccc(/C=N/NC(=O)CN2CCS(=O)(=O)CC2)cc1 | -20% | x |
| Cn1c(=O)c2c(ncn2CC(=O)N2CCN(c3ccc([N+](=O)[O-])cc3)CC2)n(C)c1=O | -12% | -16% |
| CC(=O)C(Sc1nnnn1-c1ccccc1)C(C)=O | -5% | -7% |
| Cc1ccccc1C(=O)OCn1nnc2ccccc2c1=O | 6% | 5% |
| Cn1c(=O)oc2cc(S(=O)(=O)N3CCC(C(=O)Nc4ccc(F)c(Cl)c4)CC3)ccc21 | 1% | -4% |
| CCOc1ccccc1NC(=O)CN(c1ccc(OC)c(OC)c1)S(=O)(=O)c1ccc(C)cc1 | -23% | -12% |
| NC(N)=Nc1nc(CSCC/C(N)=N/S(N)(=O)=O)cs1 | -16% | i |
| CCN(CC(=O)Nc1ccc(Br)cc1)CC(=O)Nc1cc(C)on1 | -19% | -20% |
| O=C(NCc1ccccc1)c1nc(S(=O)(=O)Cc2ccccc2)ncc1Cl | -20% | -21% |
| N#CC1(NC(=O)COC(=O)c2cccc(-n3cnnn3)c2)CCCCC1 | -7% | i |
| COc1ccc(CCNC(=O)CN2C(=O)CCSc3ccccc32)c(OC)c1 | -15% | -3% |

Shown with each value named: part of the list above
COc1ccc(C(=O)OCC(=O)NC2CCCC2)c(OC)c1OC
  VACV Venus inh = -5%
  VACV mCherry inh = i
O=C(NCc1ccccc1)C1CCN(S(=O)(=O)c2ccc(N3CCCC3=O)cc2)CC1
  VACV Venus inh = -16%
  VACV mCherry inh = i
Cc1ccc(/C=N/NC(=O)c2cc(-c3ccncc3)nc3ccccc23)o1
  VACV Venus inh = -22%
  VACV mCherry inh = u
